# PV pol inh = poliovirus RdRp elongation inhibitors, primary screen, biochemical, fluorescence polarization, total intensity; poliovirus polymerase elongation; active compounds read low; % elongation, % (compound at 16.7 µg/mL); actives 0.66% (n = 150,000); AID 588519, 2011; in the data active = % elongation below about 90%; note: some results filed as inactive read as strong as hits
# Target sequence (P03300 1749-2209 limits assumed): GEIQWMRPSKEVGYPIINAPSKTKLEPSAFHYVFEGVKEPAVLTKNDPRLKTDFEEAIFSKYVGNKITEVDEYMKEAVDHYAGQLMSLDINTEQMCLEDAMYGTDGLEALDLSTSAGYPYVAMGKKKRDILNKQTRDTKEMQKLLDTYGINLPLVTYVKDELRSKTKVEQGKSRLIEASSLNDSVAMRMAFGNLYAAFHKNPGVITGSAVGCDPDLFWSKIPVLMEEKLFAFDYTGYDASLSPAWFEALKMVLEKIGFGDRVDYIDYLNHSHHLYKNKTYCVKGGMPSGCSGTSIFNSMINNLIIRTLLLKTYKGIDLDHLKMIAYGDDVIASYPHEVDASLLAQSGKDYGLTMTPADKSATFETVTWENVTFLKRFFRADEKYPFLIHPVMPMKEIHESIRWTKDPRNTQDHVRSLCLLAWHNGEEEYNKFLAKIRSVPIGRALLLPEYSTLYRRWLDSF
# PV pol inh intensity = also measured in PV pol inh; calls as there; % elongation; measured here: total intensity read-out; formula for this scale not given here;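 total fluorescence in place of polarization; lower means less elongation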
# Starred values were filed as active, the others as inactive. These rows are one share of the data. The share of hits here may be higher or lower than overall.
mol	PV pol inh	PV pol inh intensity
C=CCc1ccccc1OCc1nc2ccccc2n1CC	103	106
CCn1c(C(=O)NCc2ccc(OC)cc2)cc2sc(Cl)cc21	101	107
Cc1ccc(-n2c(=O)c3c(c4cc(C)ccc4n3C)n(CC(=O)N3CCCC3)c2=O)cc1	103	110
Cc1ccc(S(=O)(=O)CC(=O)Nc2sc3c(c2C#N)CCCCC3)cc1	101	105
Cc1cc(=O)n(C(C)C(=O)NCc2ccccc2Cl)c2c1c(C)nn2-c1ccccc1 (configuration not stated)	102	95
CCc1ccc(-n2nc(CO)c(C(=O)NC)n2)cc1	108	103
COc1ccccc1NC(=O)C1CCC(CNS(=O)(=O)c2ccc3c(c2)CC(C)N3C(C)=O)CC1 (configuration not stated)	118	104
O=C(CN1C(=O)C2(SCC(=O)N2c2ccccc2)c2ccccc21)NCc1ccccc1Cl (configuration not stated)	108	107
CCCC1=Nc2cc(C(=O)NCCCN(CC)CC)ccc2Sc2ccccc21	115	114
CCOC(=O)c1c(C)c(-c2ccccc2)n(CC(=O)NCCc2ccc(C)cc2)c1C	104	110
CCCN(CCC)CCCNC(=O)Cn1cnc2sc(C)c(S(=O)(=O)N3CCCCC3)c2c1=O	104	108
CCc1ccc(-c2nn(CC(=O)Nc3ccccc3C)c3c2cnc2ccc(C)cc23)cc1	105	114
CCOC(=O)c1c(NC(=O)c2cc(-c3cccc(Cl)c3)on2)sc(C)c1C	96	96
CCOC(=O)c1[nH]c2ccccc2c1NC(=O)c1ccccc1F	98	102
COc1ccc(CNC(=O)CCc2c(C)c3cc4c(C)coc4cc3oc2=O)cc1	102	107
CCCN(CCC)c1nn2c(=O)c(C(=O)NCc3cc(Br)ccc3OC)cnc2s1	106	112
CCc1ccccc1NC(=O)N1CC(CC)Oc2ccc(Cl)cc21 (configuration not stated)	103	106
COc1cc(Cl)c(C)cc1NC(=O)Cn1ncc2c3ccccc3n(Cc3ccccc3)c2c1=O	107	110
CC(C)CCNC(=O)CCC(=O)NNc1nc2ccccc2c2nc(-c3ccccc3)nn12	108	101
CCOC(=O)c1ccc(NC(=O)c2cc3cc(C)ccc3n2C)cc1	108	113
Cc1ccc(CSc2nc3ccncc3n2Cc2nc(-c3ccccc3C)oc2C)cc1	107	111
CCc1ccc(CNC(=O)CCC(=O)N2Cc3cccc(OC)c3Oc3ncccc32)cc1	112	113
CSc1ccc(CCNC(=O)c2c(C)nn(-c3ccc(F)cc3)c2-n2cccc2)cc1	112	108
Cc1c(-c2nnc(SCC(=O)Nc3ccccc3F)o2)nnn1-c1ccc(F)cc1	149	170
Cc1nc(-c2ccc(S(=O)(=O)Nc3ccc(C)c(N(C)C)c3)cc2)co1	108	116
CCc1nnc(NC(=O)c2nc(SCc3ccccc3C)ncc2Cl)s1	103	99
COc1cc(NC(=O)c2c(-c3ccc(C)cc3)nnc3ccccc23)cc(OC)c1OC	110	107
CCc1ccc(NC(=O)C2CCCN2S(=O)(=O)c2ccc3nc(-c4ccccc4)[nH]c3c2)cc1 (configuration not stated)	107	100
O=C(CSc1nc(-c2ccccc2)no1)N1CCN(c2ccc(F)cc2)CC1	111	113
Cc1cccc(CSc2nc3c(c(=O)[nH]2)CCC3)c1	106	107
CCOC(=O)c1sc(NC(=O)c2cc3nc(-c4ccc(Br)cc4)cc(C(F)(F)F)n3n2)c(C(=O)OCC)c1C	106	91
Cc1ccccc1NC(=O)c1c(C)oc2ccc(O)c(CN3CCOCC3)c12	102	109
Cn1c(Nc2ccc(Cl)cc2)cc(=O)n(C)c1=O	104	106
CC1CCCCN1CCCNC(=O)CN1C(=O)c2cccnc2Oc2ccc(Cl)cc21 (configuration not stated)	105	103
COc1ccc(Nc2c(-c3ccc(Cl)cc3)nc3cnccn23)cc1OC	102	105
CCOc1ccc(-c2nnc(SCC(=O)NCc3ccccc3)o2)cc1	116	114
CC(C)CCn1c(=O)c2sccc2n2c(CCCC(=O)NC(C)c3ccccc3)nnc12 (configuration not stated)	112	110
Cc1cccc(NC(=O)c2cn(-c3ccccc3)nc2-c2ccccc2)c1C	107	101
COc1ccc(-c2noc(-c3ccc(N4CCN(c5ccc(OC)cc5)CC4)c([N+](=O)[O-])c3)n2)cc1	107	114
CCOC(=O)c1cccc(NC(=O)NCc2ccc3c(c2)CCN3C(=O)c2ccccc2)c1	111	100
Cc1ccc2c(c1)N(CC(=O)NCCCN1CCCCC1)C(=O)c1cccnc1O2	108	110
COc1ccc(N2CCN(C(=O)CSCc3nc(-c4ccccc4Cl)oc3C)CC2)cc1	107	101
CN(C)c1ccc(CNc2nc(-c3ccco3)nn2C(=O)c2cccc([N+](=O)[O-])c2)cc1	101	103
COc1ccccc1N1CCN(S(=O)(=O)c2ccc(F)c(C(=O)Nc3ccc(Cl)cc3C(F)(F)F)c2)CC1	104	99
CCOC(=O)Cn1c(=O)n(CC2CCCO2)c2nc(-c3ccc(C(C)C)cc3)nc(C(N)=O)c21 (configuration not stated)	105	98
CCOC(=O)c1oc2c(c1C)-c1nn(Cc3cccc(Cl)c3)cc1CC2	108	106
CC(C)Cc1nn2c(=O)cc(COC(=O)c3ccc(NC(=O)C4CCCCC4)cc3)nc2s1	98	109
CCOc1ccc(-c2c(C)nn3c(C)c(C(=O)NCCc4ccc(Cl)cc4)cnc23)cc1OCC	101	104
Cc1ccc(-c2nc3ccccc3[nH]2)cc1NC(=O)COc1ccccc1[N+](=O)[O-]	104	103
Cc1ccc(NS(=O)(=O)c2ccc(-c3cc(C)no3)cc2)c(Br)c1	110	108
Cc1ccc(-n2nc(-c3ccccc3)c3cnc4cc5c(cc4c32)OCO5)cc1C	110	111
CCOC(=O)c1[nH]c(C)c(CCC(=O)Nc2ccccc2OCC)c1C	107	106
Cc1ncc(CO)c2c1Oc1nc(-c3ccccc3)nc(SCC(=O)Nc3cccc(C(F)(F)F)c3)c1C2	103	98
Cc1cccc(CSc2nc3cc(C(=O)NC4CCCC4)ccc3c(=O)n2Cc2ccccc2)c1	104	112
O=C(Nc1ccc(Br)c(Cl)c1)c1ccc(C(=O)Nc2ccc(Br)c(Cl)c2)cc1	106	106
CCOC(=O)c1[nH]c2ccccc2c1NC(=O)c1ccccc1OCC	110	108
O=C(CSc1c2c(nc3cc(Cl)ccc13)CCCC2)NCc1ccccc1Cl	100	100
CN(Cc1ccccc1)C(=O)CSc1nc2ccccc2n1Cc1ccccc1F	105	96
CCCn1c(NCc2ccccc2F)nc2ccccc21	103	109
COc1ccc(CNC(=O)CCn2c(=O)c3cccn3c3ccc(F)cc32)cc1OC	109	92

# Additional entries.
mol	PV pol inh	PV pol inh intensity
COc1ccccc1Nc1cc(C(=O)NCCCN(C)c2ccccc2)c2ccccc2n1	104	108
COc1ccc(-c2nnc(SCC(=O)Nc3ccc(C)c(C)c3)s2)cc1	107	113
CC(=O)c1cccc(NC(=O)c2c(C)nn(-c3ccc(F)cc3)c2-n2cccc2)c1	110	97
CCC(C)Sc1oc(-c2ccco2)nc1S(=O)(=O)c1ccc(Cl)cc1 (configuration not stated)	105	107
Cc1ccc(Cn2c(=O)n(CCCC(=O)NCc3ccccc3Cl)c(=O)c3ccccc32)cc1	105	99
COc1ccc(CSc2nc3ncccc3[nH]2)cc1	111	114
O=C(Cn1cc(SCc2ccccc2)c2ccccc21)N1CCCCCC1	116	114
COc1ccccc1CNC(=O)c1cnc(N(C)C)nc1	106	109
Cc1ccc(S(=O)(=O)N(CC(=O)NCCSc2ccc(Cl)cc2)c2cccc(Cl)c2)cc1	108	105
CCc1ccc(NC(=O)c2nc3nc(C)cc(C(F)F)n3n2)cc1	106	110
COc1ccccc1C(=O)NCCn1cc(SCc2ccc(C)cc2)c2ccccc21	109	109
Cc1ccc(OCC(=O)Nc2ccc(OCc3cc(=O)n4c(C)csc4n3)cc2)cc1C	111	120
CCOc1ccc(CCNC(=O)C2=C(C)C(=O)OC23CCCCC3)cc1	106	111
CCOc1cc(CNC(=O)c2ccccc2NC(=O)c2nsc3ccccc23)ccc1OC	109	111
CC1=C(C(=O)Nc2cc(Cl)ccc2C)C(c2ccco2)n2ncnc2N1 (configuration not stated)	108	116

# Part of the list above in order of molar mass, ascending:
mol	PV pol inh	PV pol inh intensity
COc1ccccc1CNC(=O)c1cnc(N(C)C)nc1	106	109
CCOc1ccc(CCNC(=O)C2=C(C)C(=O)OC23CCCCC3)cc1	106	111
COc1ccc(-c2nnc(SCC(=O)Nc3ccc(C)c(C)c3)s2)cc1	107	113
CCC(C)Sc1oc(-c2ccco2)nc1S(=O)(=O)c1ccc(Cl)cc1 (configuration not stated)	105	107
COc1ccccc1C(=O)NCCn1cc(SCc2ccc(C)cc2)c2ccccc21	109	109
CCOc1cc(CNC(=O)c2ccccc2NC(=O)c2nsc3ccccc23)ccc1OC	109	111
Cc1ccc(Cn2c(=O)n(CCCC(=O)NCc3ccccc3Cl)c(=O)c3ccccc32)cc1	105	99

# Pulled one by one from the entries so far:
mol	PV pol inh	PV pol inh intensity
CCOC(=O)c1sc(NC(=O)c2cc3nc(-c4ccc(Br)cc4)cc(C(F)(F)F)n3n2)c(C(=O)OCC)c1C	106	91
Cc1ccc(-c2nc3ccccc3[nH]2)cc1NC(=O)COc1ccccc1[N+](=O)[O-]	104	103
Cc1cccc(CSc2nc3c(c(=O)[nH]2)CCC3)c1	106	107

# Other entries:
Compound,PV pol inh,PV pol inh intensity
Cc1ccc(NCc2nc3ccccc3n2CCOc2ccccc2C)cc1,105,105
Cc1cc(C)cc(OCC(=O)Nc2cccc(-c3nc4ccccc4[nH]3)c2)c1,103,106
NC(=O)c1cc(S(=O)(=O)NCc2ccc(Br)cc2)cs1,111,113
COc1cc(OC)c(NC(=O)CSC2=Nc3ccccc3N=C(c3ccc(F)cc3)C2)cc1Cl,107,106
Cc1ccc(C)c(N2CCN(C(=O)c3cc4c(=O)n(Cc5ccccc5)ccc4nc3C)CC2)c1,104,110
Cc1ccc(C)c(N2CCN(CCCNC(=O)Cn3ncc4c5ccccc5n(C)c4c3=O)CC2)c1,107,113
COc1ccc(-c2noc(-c3ccc(N4CCC(C)CC4)c([N+](=O)[O-])c3)n2)cc1OC,103,109
CCOC(=O)C1CCC(CN(Cc2c(Cl)cccc2Cl)S(=O)(=O)c2ccc(F)c(C)c2)CC1 (configuration not stated),109,111
COc1cccc(CNC(=O)C(=O)NCC(c2ccc3c(c2)OCO3)N2CCOCC2)c1 (configuration not stated),108,108
Cc1ccc(S(=O)(=O)n2nc(-c3ccc(Cl)cc3)nc2NCc2ccc(F)cc2)cc1,110,109
COc1ccccc1-c1noc(-c2ccc(N3CCC(C)CC3)c([N+](=O)[O-])c2)n1,104,101
Fc1ccc(-n2ncc3c(Nc4ccc5c(c4)OCCO5)ncnc32)cc1,107,110
CN(C)C=NC(=O)c1cc2c(n(-c3ccccc3)c1=O)CC(C)(C)CC2=O,102,102
CCOC(=O)c1ccc(N2C(=O)c3[nH]nc(-c4ccccc4)c3C2c2ccc(CC)cc2)cc1 (configuration not stated),114,111
CC(=O)N1CCCc2ccc(NS(=O)(=O)c3ccc(F)cc3F)cc21,108,107
O=C(NCC(c1ccc2c(c1)OCO2)N1CCOCC1)C(=O)Nc1ccccc1 (configuration not stated),110,111
COc1ccc(-n2c(SCC(=O)N3CCc4ccccc43)nc3c([nH]c4ccccc43)c2=O)cc1,111,118
COc1cc(F)c(S(=O)(=O)Nc2c(C)n(C)n(-c3ccccc3)c2=O)cc1OC,100,94
COc1ccc(CNC(=O)c2ccc3nc(CCc4ccccc4)oc3c2)cc1OC,113,110
COc1cccc(NC(=O)CN2C(=O)COc3ccc(S(=O)(=O)N4CCOCC4)cc32)c1,106,102
O=C(Nc1ccc(S(=O)(=O)N2CCC(c3nc4ccccc4s3)CC2)cc1)c1ccccc1,111,100
CN(CC(=O)NCc1ccc(Cl)cc1)S(=O)(=O)c1ccc2c(c1)c(=O)n(C)c(=O)n2C,106,106
CCC(=O)c1cc2c(cc1NC(=O)c1ccccc1F)OCCO2,105,108
Cc1ccc(Cl)cc1NCc1nnc2n1CCCCC2,113,116
CCCC(CCC)C(=O)Nc1cccc(-c2nc3cccnc3s2)c1,111,105
CCOc1ccc(S(=O)(=O)N(CC(=O)Nc2ccc3c(c2)OCO3)c2ccccc2)cc1,101,103
COc1cc2c(c(OC)c1)C(c1cccc(F)c1F)CC(=O)N2 (configuration not stated),111,114
CC1CCCN(c2c(S(=O)(=O)c3ccccc3)cnc3ccc(Cl)cc23)C1 (configuration not stated),104,109
CCOc1ccc(NC(=O)C2CC(=O)N(c3ccc(C(C)C)cc3)C2)cc1 (configuration not stated),107,110
CC(C)c1ccc(Cn2c(COc3ccccc3)nc3ccccc32)cc1,102,103
CCS(=O)(=O)c1nc(S(=O)(=O)c2ccc(C)cc2)c(NCCCOC)s1,107,109
Cc1ccc(C)c(NC(=O)CN2CCN(C3CCCCC3)C(=O)C2=O)c1,107,105
CCOC(=O)c1ccc(NC(=O)CSc2c(C(C)C)cnc3c2c(=O)n(C)c(=O)n3C)cc1,110,102
COc1cc(Cl)c(NS(=O)(=O)c2ccc3c(c2)CC(C)N3C(=O)C2CCC2)c(OC)c1 (configuration not stated),114,112
CCOC(=O)c1c(C)[nH]c(C)c1S(=O)(=O)N1CCCC(C(=O)N2CCN(c3cc(C)ccc3C)CC2)C1 (configuration not stated),98,104
Oc1ccccc1-c1nc(/C=C/c2ccccc2Cl)nn1-c1ccccc1,105,103
COc1cc(S(=O)(=O)NCCc2c(C)[nH]c3ccc(C)cc23)ccc1Br,105,111
CC(C)c1nc2ccc(C(=O)NCc3ccc(N(C)C)cc3)cc2o1,110,102
Cc1ccc(C)c(S(=O)(=O)c2nnn3c2nc(Nc2ccc(C)c(C)c2)c2ccccc23)c1,105,104

# Screening data (PubChem)
